MARV entry inh: Marburg virus entry inhibition. Marburg virus pseudotyped entry inhibition, cell reporter; control for the full effect not named in the record; about a third of the inactives were read at about 46 µM. AID 540276. Potency, µM (titrated, usually from 37.8 µM), for the others: top-dose activity change, negative = inhibition, usual class: inhibitors. 300,000 compounds, 1.8% hits; active = well fitted inhibition curve with a large enough effect; inconclusive = small, poorly fitted or top-dose-only effect, or effect the other way; inactive = flat fitted curve, though single readings scatter; tested in HEK293 cells; about a fifth of its hits are not listed in these tables; further: on the % scale 0 is the no-effect control and ±100 the full control effect; luciferase read-out
StopGo reporter: lowers the luciferase signal of an FMDV 2A StopGo reporter; human cells with a luciferase reporter of 2A StopGo recoding; control for the full effect not named in the record; Potency, µM (doses to about 57.9 µM), inactives show top-dose signal change, negative = less light; 410,000 compounds, 1.2% hits; AID 1159524; active = well fitted falling curve with a large enough effect; inconclusive = small, poorly fitted or top-dose-only effect; inactive = no such curve, though single readings can be large or run the other way; tested in HEK293T cells; further: on the % scale 0 is the no-effect control and ±100 the full control effect; nearly all actives have a fitted effect of over 45% in size; luciferase light after 4 h
SARS PLP yeast: inhibitors of SARS-CoV papain-like protease in yeast | 330,000 compounds, 0.19% hits | Potency, µM (top dose mostly 32.9 µM), for inactives: top-dose activity, positive = growth rescue | AID 485353 | S. cerevisiae expressing SARS-CoV PLpro, growth rescue; control for the full effect not named in the record; active means well fitted rising curve with a large enough effect; inconclusive means small, poorly fitted or top-dose-only effect; inactive means no such curve, though single readings can be large or run the other way; further: 0% is about no effect; nearly all actives have a fitted effect of over 55% in size; growth read by luminescence after 48 h
RE007 growth inh: less growth of the S. pombe RE007 Vpr strain. S. pombe RE007 Vpr strain, BacTiter-Glo ATP luminescence, 24 h; control for the full effect not named in the record. Potency, µM (doses to about 92.2 µM), inactives show top-dose activity change, negative = less growth. 360,000 compounds, 0.21% hits; active = well fitted falling curve with a large enough effect; inconclusive = small, poorly fitted or top-dose-only effect; inactive = no such curve, though single readings can be large or run the other way;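 further: on the % scale 0 is the no-effect control and ±100 the full control effect; nearly all actives have a fitted effect of over 50% in size; the assay follows cell death caused by Vpr and the record does not say whether a fall means rescue or toxicity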
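Fission yeast RE007 carrying one integrated HIV-1 vpr copy, seeded at OD 0.01 in PMG+AL medium with 23 nL pinned compound. Grown 24 h at 30 degrees; viability read by BacTiter-Glo luminescence after 5 min.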
NS1 inh: inhibitors of influenza NS1 protein function; Potency, µM (doses to about 46.1 µM), for the others: top-dose activity, positive = more growth; S. cerevisiae slowed by influenza A NS1, growth recovery by OD600; 270,000 compounds, 0.4% hits; AID 2326; active means well fitted rising curve with a large enough effect; inconclusive means small, poorly fitted or top-dose-only effect; inactive means no such curve, though single readings can be large or run the other way; further: nearly all actives have a fitted effect of over 50% in size
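A cell-based growth assay was used: compounds that relieve NS1-induced slow growth of budding yeast raise OD600. Assay medium was yeast nitrogen base with ammonium sulphate and -URA supplement, pH 6.0, with 2% galactose.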
Lassa entry inh: blocks Lassa virus binding to or entry into cells; Lassa virus pseudotype entry inhibition, cell reporter; control for the full effect not named in the record; Potency, µM (highest dose often 37.9 µM), without a hit: top-dose activity change, negative = inhibition, hits mostly inhibitors; 300,000 compounds, 1.2% hits; active means well fitted inhibition curve with a large enough effect; inconclusive means small, poorly fitted or top-dose-only effect, or effect the other way; inactive means flat fitted curve, though single readings scatter; tested in HEK293 cells; further: on the % scale 0 is the no-effect control and ±100 the full control effect; nearly all actives have a fitted effect of over 50% in size; luciferase read-out
Cruzain inh Det: blocks cruzain activity in presence of Triton detergent; Potency, µM, without a hit: max response, negative = inhibition, usual class: inhibitors; AID 1478; P25779; purified cruzain, Z-FR-AMC fluorescence, 0.01% Triton; 200,000 compounds, 0.43% hits;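 further: plate controls were neutral wells for no effect and buffer without enzyme for full effect; nearly all actives have a fitted effect of over 40% in size; top concentration of the series not given in the record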
Target sequence (P25779 123-467 limits assumed): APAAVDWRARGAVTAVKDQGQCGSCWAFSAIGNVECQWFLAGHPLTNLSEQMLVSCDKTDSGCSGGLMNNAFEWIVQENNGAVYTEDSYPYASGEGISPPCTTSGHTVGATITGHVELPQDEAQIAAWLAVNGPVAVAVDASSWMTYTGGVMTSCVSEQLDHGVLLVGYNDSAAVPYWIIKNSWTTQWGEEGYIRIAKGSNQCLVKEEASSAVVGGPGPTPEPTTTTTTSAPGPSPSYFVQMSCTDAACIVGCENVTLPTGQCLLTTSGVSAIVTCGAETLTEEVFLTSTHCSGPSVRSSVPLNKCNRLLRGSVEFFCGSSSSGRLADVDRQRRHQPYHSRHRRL
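Enzyme 1.5 nM, Z-FR-AMC 2 uM, NaOAc 100 mM pH 5.5, DTT 5 mM, Triton X-100 0.01%; 15 min RT compound preincubation; kinetic ex360/em450, 60 s delta.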
Cruzain noTriton: blocks cruzain activity in detergent-free assay | purified cruzain, Z-FR-AMC fluorescence, no detergent | P25779 | AID 1476 | Potency, µM, inactives show max response, negative = inhibition, most hits filed as inhibitors | 200,000 compounds, 2.3% hits;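 further: plate controls were enzyme without inhibitor for no effect and buffer without enzyme for full effect; nearly all actives have a fitted effect of over 40% in size; top concentration of the series not given in the record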
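Detergent-free condition (0.00005% Triton X-100) in acetate buffer pH 5.5 with DTT. 1.5 nM enzyme and compound were pre-mixed 15 min, then 2 uM Z-FR-AMC substrate added; reaction progress from fluorescence change between first and third reads (60 s).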
Active calls of the source: *; ? = inconclusive; · = not tested or not shown; & = joins results of further samples; [ ] = remark or other dose. Unless noted, the call rests on the fitted dose curve; in most records, active means well fitted curve in the direction sought with a large enough effect; inconclusive means small, poorly fitted or top-dose-only effect, or another doubt; inactive means no such curve, though single readings can be large; an effect the other way counts as inactive or inconclusive. Potency means the concentration at half of the fitted maximal effect.

SMILES	MARV entry inh	StopGo reporter	SARS PLP yeast	RE007 growth inh	NS1 inh	Lassa entry inh	Cruzain inh Det	Cruzain noTriton
CCN(/C=N/c1sc2c(c1C#N)CCCCC2)CC	?	18%	-9%	-22%	-37%	-18%	-4.2%	-5%
COCCn1c(=NC(=O)CN2C(=O)CCC2=O)sc2cc(S(N)(=O)=O)ccc21	2%	4%	8%	-24%	-1%	?	-6.3%	5%
Cc1ccc(NC(=O)c2sc(Cl)nc2-c2ccccc2)cc1	?	0%	-9%	9%	-7%	11%	-4.1%	-28%
CCOC(=O)Cn1ccc(NC(=O)COc2ccc(F)cc2)n1	-7%[46.1 µM]	-4%	-2%	-15%	17%	7%[46.1 µM]	·	·
Cn1c(CCNC(=O)c2ccco2)nc2ccccc21	8%	1%	1%	-9%	·	9%	·	·
O=C(NC1CCSc2ccccc21)c1cccc(S(=O)(=O)N2CCOCC2)c1 (stereo not given)	?	5%	·	-6%	·	-21%	·	·
CCOc1ccc(N2C(=O)CC(Sc3nc(O)c(CC)c(=O)[nH]3)C2=O)cc1 (stereo not given)	?	0%	·	17%	·	-14%	·	·
Cc1ccc(CNC(=O)C2CCC(=O)N2C(C)C)cc1 (stereo not given)	?	12%	1%	-2%	2%	-11%[46.1 µM]	·	·
COc1ccc(OCCCC(=O)Nc2cccc([N+](=O)[O-])c2)cc1	?	-6%	17%	8%	-15%	-6%	-9.5%	-1%
Cc1ccc(C2=NO[C@@](CC(=O)O)(C(=O)Nc3ccc4c(c3)OCCO4)C2)cc1	?	7%	1%	3%	-2%	26%[46.1 µM]	·	·
O=C(CNC(=O)c1nc[nH]c1C(=O)N1CCc2ccccc2C1)OCc1ccccc1	·	-19%	-2%	-4%	-13%	·	·	·
Cc1nc(N)sc1C(=O)NN	-1%[46.1 µM]	0%	0%	8%	0%	-7%	·	·
CCc1nnc(NC(=O)C2CCN(c3nccc(C)n3)CC2)s1	0%	-23%	4%	-3%	-12%	3%	-0.4%	3%
CC(C)c1cc(C(=O)O)n[nH]1	12%	12%	4%	12%	-2%	-18%	7.4%	-8%
CCOc1ccc2oc(C(=O)NC3CC(C)(C)NC(C)(C)C3)c(C)c2c1	?	-5%	-1%	5%	·	-13%	·	·
CC1CCCCN1CCCNC(=O)c1[nH]c2ccccc2c1Sc1ccc(Cl)cc1 (stereo not given)	-1%[46.1 µM]	-24%	·	·	·	-10%[46.1 µM]	-6.7%	?
COC(=O)c1c(NC(=O)CSc2nnc(Cn3nnc4ccccc43)n2C)sc(C)c1C	-1%&1%	·	-1%	3%	-15%	-26%	-3.9%	?
Cc1csc(CN(C)C(=O)C2CCC(=O)N(CCCc3ccccc3)C2)n1 (stereo not given)	·	-4%	8%	-2%	3%	·	·	·
Cc1ccc(NC(=O)/C=C/C(=O)O)c(NC(=O)c2ccccc2)c1	·	-15%	-3%	-8%	-2%	·	·	·
O=C(NNC1CC(=O)N(c2ccccc2)C1=O)c1ccco1 (stereo not given)	-2%[46.1 µM]	-6%	1%	-17%	9%	16%	·	·
COc1ccccc1NS(=O)(=O)c1cc(N)ccc1N1CCCCC1	?	6%	11%	-15%	11%	-1%	·	·
Cc1cc(C)c(NC(=S)N(CCN(C)C)C(C)c2cccnc2)c(C)c1 (stereo not given)	-2%[46.1 µM]	-10%	-6%	-3%	·	?	·	·
CCOC(=O)c1sc2ncn(CC(=O)Nc3ccc(F)cc3F)c(=O)c2c1C	19%[46.1 µM]	5%	·	·	·	6%[46.1 µM]	7.0%	3%
COCCN(C(=O)COC(=O)CSc1ccc2ccccc2c1)c1c(N)n(Cc2ccccc2)c(=O)[nH]c1=O	15%	-24%	2%	5%	·	9%	·	·
CC(=O)Oc1ccc(C(=O)Nc2ccccc2C(=O)NCC(C)C)cc1	?	-18%	1%	-5%	2%	-18%	-4.8%	-5%
Additional records:
SMILES	MARV entry inh	StopGo reporter	SARS PLP yeast	RE007 growth inh	NS1 inh	Lassa entry inh	Cruzain inh Det	Cruzain noTriton
COC(CNC(=O)C(=O)Nc1cc2c3c(c1)CC(=O)N3CCC2)OC	?	-3%	·	-7%	12%	17%[46.1 µM]	·	·
Cc1ccc(NC(=O)CCn2c(=O)c3cccn3c3ccccc32)c(Cl)c1	·	-11%	·	·	·	?	-5.7%	26%
COc1ccc(NC(=O)C(NC(C)=O)C(=O)NCc2ccccc2OC)cc1 (stereo not given)	-4%[46.1 µM]	-5%	2%	1%	3%	21%	1.0%	-8%
CC1(C)CC(=O)C2=C(C1)Nc1ccccc1NC2c1cccc(F)c1 (stereo not given)	5%	-9%	6%	2%	11%	1%	·	·
Cc1nnc(SCC(=O)Nc2cc(S(C)(=O)=O)ccc2Cl)n1Cc1ccccc1	-13%[46.1 µM]	-2%	4%	0%	20%	-12%[46.1 µM]	·	·
C/C(=N\NC(=S)Nc1ccc(C)cc1)c1cc2ccccc2o1	-27%	10%	-1%	?	8%	6.5µM*	·	·
Cc1cccc(OCCCC(=O)Nc2ccc3c(c2)OCO3)c1	-1%	3%	3%	-12%	-15%	-7%	-3.9%	-15%
CCCCn1c(N)c(N(CC(C)C)C(=O)C2CCN(C(=O)c3ccc(Cl)cc3)CC2)c(=O)[nH]c1=O	?	2%	-3%	12%	·	-29%[46.1 µM]	·	·
COc1ccc(-c2csc(NC(=O)Nc3ccccc3)n2)cc1	·	-11%	5%	-9%	3%	·	·	·
COC(=O)c1[nH]c2ccccc2c1NC(=O)CN1CC(C)OC(C)C1 (stereo not given)	-6%	0%	10%	2%	12%	?	0.3%	5%
O=C(/C=C/c1ccccc1Cl)Nc1cccc(S(=O)(=O)NC2=NCCCCC2)c1	?	24%	-3%	25%	?	6%	-7.5%	-15%
CC(=O)NC(CCS(C)(=O)=O)C(=O)Nc1cccc(C(C)=O)c1 (stereo not given)	0%	14%	-2%	7%	0%	1%	3.5%	-3%
COc1ccccc1C(CNC(=O)CNC(=O)c1ccc(Cl)c(Cl)c1)N1CCCC1 (stereo not given)	?	-14%	-8%	-4%	·	2%	·	·
Cc1ccc(CC(=O)N2CCN(C)CC2)cc1	·	1%	-3%	3%	6%	·	·	·
CCc1nnc(NC(=O)c2nc3nc(C)cc(C)n3n2)s1	11%	-16%	0%	9%	?	10%	0.0%	3%
Cc1cccc(CN2CCN(CC(=O)NCc3cccs3)C2=O)c1	9%[46.1 µM]	23%	-2%	4%	2%	-12%	5.5%	15%
O=C(COC(=O)c1cnccn1)NC(=O)c1ccccc1	19%	1%	9%	5%	·	19%	·	·
CCOc1ccc(C(=O)c2c(N)c(-c3nc(-c4ccc(OCC)cc4)cs3)c3ccccn23)cc1	0%[46.1 µM]	-9%	·	·	·	7%[46.1 µM]	-1.8%	-19%
CCOc1cc(-c2cc(-c3ccc(N)cc3)nc(N)c2C#N)ccc1O	?	?	-9%	20%	-32%	?	-9.1%	?
CCOC(=O)/C(=N\Nc1ccccc1Cl)N(C)C1CCS(=O)(=O)C1 (stereo not given)	17%[46.1 µM]	-14%	1%	101%	-5%	-9%[46.1 µM]	·	·
COc1ccc(/C=C/C(=O)O)cc1S(=O)(=O)NCc1cccnc1	5%	17%	6%	4%	?	8%	·	·
Oc1c(CN2CCOCC2)cc(COCc2ccccc2)c2cccnc12	?	-6%	·	-16%	-83%	?	3.3%	4%
Cc1cccc(NC(=O)CNC(=O)N2CC(=O)Nc3ccccc32)c1C	·	-10%	-2%	1%	-9%	·	·	·
COc1ccccc1/C=C1\SC(=S)N(NS(=O)(=O)c2ccc(C)cc2)C1=O	·	-24%	-6%	11%	0%	·	·	·
COc1ccc(CCNC(=O)CNC(=O)Cn2cnc3sc(C)c(C)c3c2=O)cc1OC	6%[46.1 µM]	-3%	0%	-6%	·	-4%[46.1 µM]	·	·
Next section:
SMILES	MARV entry inh	StopGo reporter	SARS PLP yeast	RE007 growth inh	NS1 inh	Lassa entry inh	Cruzain inh Det	Cruzain noTriton
Cc1ccc(NC(=O)CCCn2c(=O)c3cccn3c3cccnc32)c(Cl)c1	·	-8%	·	·	·	?	-2.0%	-4%
COc1ccccc1C(=O)Nc1nc2cc3c(cc2s1)OCO3	·	19%	1%	0%	-1%	·	·	·
Cc1onc(-c2ccccc2Cl)c1C(=O)NCC1CCCO1 (stereo not given)	28%	·	9%	-8%	7%	10%	5.9%	4%
CCN(CC)Cc1c(C(=O)N/N=C(\C)c2ccncc2)nnn1-c1nonc1N	-18%[46.1 µM]	-11%	-1%	-18%	1%	-3%[46.1 µM]	·	·
O=C(NNc1cc(N2CCOCC2)nc(N2CCOCC2)n1)c1ccc(Cl)c(Cl)c1	?	-17%	-4%	-5%	16%	-2%	-3.7%	5%
COc1ccc(NC(=O)CCN2C(=O)C3CC=CCC3C2=O)cc1S(=O)(=O)N1CCCCC1 (stereo not given)	-2%	-24%	4%	-1%	·	1%	·	·
CC(C)Oc1ccccc1C1CC(=O)Nc2cc3c(cc21)OCCO3 (stereo not given)	?	?	1%	-9%	-4%	?	-5.3%	-4%
COc1ccc(OC)c(NC(=O)CN2C(=O)COc3ccc(S(=O)(=O)N4CCCC4)cc32)c1	-3%[46.1 µM]	-10%	0%	-3%	-10%	14%[46.1 µM]	·	·
O=C(NCC1CC1)Nc1cccs1	·	25%	5%	1%	-1%	·	·	·
C=CCNC(=O)CSc1nnc(-c2ccccc2Cl)n1-c1c(C)n(C)n(-c2ccccc2)c1=O	10%	-17%	0%	-5%	1%	?	-3.7%	-5%
COc1ccc(C2Nc3ccc(Br)cc3C(c3ccccc3)N2CC(=O)O)cc1 (stereo not given)	4%	-10%	1%	-14%	·	2%	·	·
c1ccc(-c2csc(Nc3ccc4c(c3)OCCO4)n2)cc1	?	-19%	·	-7%	6%	10µM*	-2.0%	?
Cc1cc(OCC(=O)N(Cc2ccco2)C2CCS(=O)(=O)C2)cc(C)c1Cl (stereo not given)	-2%	?	-1%	-15%	0%	-12%	·	·

Bioassay records deposited in PubChem by National Center for Advancing Translational Sciences (NCATS).
